HCMV UL50-53 inh: cytomegalovirus nuclear egress complex inhibition; HTRF UL50-UL53 interaction, normalized percent inhibition; inhibition, % (no concentration beside the values); actives 0.15% (n = 190,000); AID 1918969;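 active means both replicates at 50% or more, plus weaker picks with an unusually low signal ratio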;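 further: stock transfer was 100 nL into about 20 µL; 0% = negative control wells and 100% = wells with untagged competitor protein; inactives centre near -12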
* = called active by the depositor; & = joins results of further samples.

SMILES | HCMV UL50-53 inh
COC(=O)NC1(C(F)(F)F)Oc2cc(Cl)c(Cl)cc2O1 | -20.9
COc1cccc2ccc(N3CCN(Cc4ccccn4)CC3)nc12 | -21.1
CCOC(=O)c1c(-c2ccccc2)csc1NC(=O)/C=C/c1ccco1 | 4.7
CCc1ccc(OC(=O)c2ccc(Br)o2)cc1 | 3.7
Cc1ccc(-c2ccc(/C=N/n3cnnc3)o2)cc1 | -63.8
Cc1cc(N2CCCC(Cn3cc(CN)nn3)C2)nc(-c2ccccc2O)n1 (centres undefined) | 11.1
CN1CCN(c2cccc(Nc3nc4c(-c5ccc(S(C)(=O)=O)cc5)cccn4n3)c2)CC1 | -50.0
CC(Sc1nnc(-c2cccc(Br)c2)o1)C(=O)c1ccccc1 (centres undefined) | -5.0
CC(C)C[C@@H]1NC(=O)[C@H]2CN(S(=O)(=O)c3cccc4ccccc34)CCN2C1=O | -19.1
C[C@@H](CN1CC(=O)NC(=O)C1)N1CC(=O)NC(=O)C1 | -3.2
COc1ccccc1/C=C1\SC(=S)N(c2ccccc2)C1=O | 10.1&-2.3
CCOC(=O)c1ccc(NC(=O)c2cc(Cl)sc2Cl)cc1 | -13.4
N#Cc1c(NC(=O)CN2C(=O)CCC2=O)sc2c1CCC2 | -18.9
CCCCC[C@H](O)/C=C/[C@H]1CC[C@@H](O)[C@@H]1CCCCCCC(=O)O | -18.2&-18.2
CC(=O)N1CCc2c(sc(NC(=O)C(C)C)c2-c2nc3ccccc3s2)C1 | -17.0
O=c1ccc(C(F)(F)F)cn1-c1ccc(C(F)(F)F)cn1 | -16.2
CCC(=O)NC(C)c1nc2ccccc2n1C (centres undefined) | 1.6
O=C(CSc1c[nH]c2ccccc12)Nc1nccs1 | 4.3
COC(=O)c1sccc1NC(=O)c1ccc(C)cc1 | 1.0
O=C(NCc1ccccc1)c1ccc(S(=O)(=O)N2CCCCC2)cc1 | -16.2
CCOC(=O)c1ccc(NC(=O)c2ccc(Cl)s2)cc1 | -26.6
Cc1ccc(-c2nn3nnnc3c3ccccc23)cc1C | -2.5
Cc1ccc(SCC(=O)Nc2nnc(SCc3ccccc3)s2)cc1 | -11.1
C[C@@H](O)CCC[C@@H](O)/C=C/[C@@H]1[C@@H](CCCCCCC(=O)O)[C@@H](O)C[C@H]1O | -5.4&-5.4
Cc1cc(/C(=C\Nc2ccc(Cl)cc2)C(=O)Nc2ccc(Cl)cc2)on1 | -0.7
CCC(CC)CNc1cc(C(=O)NCCN(C)C)cc(S(=O)(=O)Nc2ccc(OC)cc2)c1 | -2.0
N#C/C(=C\c1ccc(O)c(O)c1)C(=O)NCCCc1ccccc1 | -16.5
O=S(=O)(c1cccc2cccnc12)N1CCc2ccccc21 | 1.2
CCS(=O)(=O)c1cccc(-c2cc(C(=O)NC3CCN(C)CC3)c(C)c3[nH]c4ncc(C)cc4c23)c1 | 8.0
O=C(O)CN1C(=O)/C(=C/C=C/c2ccccc2)SC1=S | -0.5
CCC(Sc1ccc(Cl)cc1)C(=O)Nc1nnc(C)s1 (centres undefined) | -6.6
CC(C(=O)O)N1C(=O)/C(=C/c2ccccc2Cl)SC1=S (centres undefined) | -31.8
O=C(C1CCCCC1)N1CC(=O)N(CCc2ccccc2)C(=O)C1 | -19.8
CCN1CCN(Cc2ccc(NC(=O)c3cc(NC(=O)c4cc5cccc(OC)c5o4)cc(OC)c3)cc2C(F)(F)F)CC1 | 2.3
CCCCc1c(-c2ccc(O)cc2)[nH]c2nccnc12 | -12.6
COc1ccc(S(=O)(=O)N2CCN(S(=O)(=O)c3ccc4c(c3)OCCO4)CC2)cc1 | -25.7
CSC1=NCCN1S(C)(=O)=O | -8.4
c1ccc2[nH]c(C3CCCN3)nc2c1 (centres undefined) | -4.3
CS(=O)(=O)c1ccc2nc(NC(=O)c3ccc(C(=O)c4ccccc4)cc3)sc2c1 | -15.7
O=c1oc(-c2ccc(-c3ccccc3)cc2)nc2ccccc12 | -8.3
CCOC(=O)Cc1csc(NC(=O)COc2cccc3ccccc23)n1 | -7.6
O=C(ON1C(=O)c2cccc3cccc(c23)C1=O)c1ccccc1 | -6.2
O=C1c2ccccc2S(=O)(=O)N1CCCCN1CCN(c2ncccn2)CC1 | 5.5
O=C(Nc1ccc2nccnc2c1)c1csc(Cc2ccccc2)n1 | -47.6
Cc1sc2ncnc(NCCc3ccc4c(c3)OCCO4)c2c1C | 3.1&-12.0
Cc1nc2ccccc2n1CC1CC1(Cl)Cl (centres undefined) | -6.4
Clc1cccn2c(-c3ccccc3OC3CCCC3)nnc12 | -10.1
COc1ccc(-c2c(C)sc(=NCCO)n2-c2ccccc2)cc1 | -4.1
CCC(C)(C)c1nnc(NC(=O)NCc2ccco2)s1 | -25.0&-25.0
O=C(Nc1ccccc1O)c1cc2cc(Br)ccc2oc1=O | 0.4
O=C(c1cc2ccccc2oc1=O)N(Cc1ccc(Cl)cc1)C1CCS(=O)(=O)C1 (centres undefined) | -14.5
COc1ccccc1CNc1ncnc2nc[nH]c12 | -7.5
OC(CNCc1ccccc1)Cn1c2c(c3ccccc31)CCCC2 (centres undefined) | -9.9
CCCCC[C@@H](O)[C@H]1C(=O)O[C@H](C)[C@@H](O)/C=C/C=C/C=C/C=C/C=C(\C)[C@@H](O)C[C@H](O)C[C@H](O)C[C@H](O)C[C@H](O)C[C@H](O)C[C@@H]1O | -13.2&-13.2
CC(C)N(CCCNC(=O)Nc1ccc(C(C)(C)C)cc1)CC1OC(n2ccc3c(N)ncnc32)C(O)C1O (centres undefined) | 0.3
Cc1cc2cc(CNC(=O)C(C)C)ccc2[nH]1 | 1.0
CCN1CCN(S(=O)(=O)c2ccc(Oc3ccccc3)cc2)CC1 | -0.3
CCOC(=O)C1=C(C)NC2=C(C(=O)CC(C)(C)C2)C1c1ccccc1 (centres undefined) | -14.3
O=c1cc(-c2ccccc2Cl)nc(-c2ccc(CN3CCC[C@@H](O)C3)cc2)[nH]1 | -11.2
O=Cc1c2[nH]c3ccccc3c2cc2[nH]c3ccccc3c12 | -17.0

An excerpt from above in order of count of non-hydrogen atoms, descending:
SMILES | HCMV UL50-53 inh
OC(CNCc1ccccc1)Cn1c2c(c3ccccc31)CCCC2 (centres undefined) | -9.9
O=Cc1c2[nH]c3ccccc3c2cc2[nH]c3ccccc3c12 | -17.0
Cc1nc2ccccc2n1CC1CC1(Cl)Cl (centres undefined) | -6.4

The listing continues:
SMILES | HCMV UL50-53 inh
COc1cc(N2CCC(O)CC2)ccc1Nc1nnc(Cl)c(Nc2ccccc2S(C)(=O)=O)n1 | -30.6
CCOC(=O)c1ccc(-c2ccc3c(c2)CCC3)nc1C | -3.2
COC(=O)c1c(NC(=O)C2CC2)c2cc(NC3CCOCC3)cnc2n1Cc1ccccc1 | -22.5
O=C(O)CCCCCC[C@@H]1C(=O)NC(=O)N1CCC(O)C1CCCCC1 (some centres undefined) | -11.9&-11.9
CCc1nnc(NC(=O)CC23CC4CC(CC(C4)C2)C3)s1 | -7.6
O=C(O)c1cccnc1Nc1ccccc1 | -4.0
Cn1cc(C(=O)c2cccc(Cl)c2Cl)cc1C(=O)O | 1.4
O=C(N/N=C/c1ccccc1O)c1ccccc1O | -13.2
COC(=O)c1ccc(Oc2c(C(F)(F)F)oc3cc(O)ccc3c2=O)cc1 | -13.6
O=P(O)(c1ccccc1)C1CCCCN1 (centres undefined) | -28.5
CCC1CCCCN1C(=O)COc1cccc2c1CCN(C)C2=O (centres undefined) | -8.7
CCOC(=O)n1ccn(C)c1=S | -18.9&-11.6
Nc1ncnc2c1nc(Br)n2C1O[C@H]2COP(=O)(O)O[C@@H]2[C@@H]1O (some centres undefined) | -8.8
COC(=O)Cc1csc(=Nc2ccccc2)n1-c1ccccc1 | -6.4
CCOC(=O)c1c(C)oc2c1c(CN1CCN(C)CC1)c(O)c1ccccc12 | -6.9

Quoted at random: 4 records from the list.
SMILES | HCMV UL50-53 inh
CCOC(=O)n1ccn(C)c1=S | -18.9&-11.6
COC(=O)c1ccc(Oc2c(C(F)(F)F)oc3cc(O)ccc3c2=O)cc1 | -13.6
COC(=O)c1c(NC(=O)C2CC2)c2cc(NC3CCOCC3)cnc2n1Cc1ccccc1 | -22.5
COc1cc(N2CCC(O)CC2)ccc1Nc1nnc(Cl)c(Nc2ccccc2S(C)(=O)=O)n1 | -30.6

New compounds follow
SMILES | HCMV UL50-53 inh
CCCCCC(=O)/C=C/[C@H]1[C@H](O)CC(=O)[C@@H]1CCCCCCC(=O)O | -5.1&-5.1
O=P(O)(c1ccccc1)c1nccn1-c1ccc(Cl)nn1 | -1.4
COc1ccc(Cl)cc1S(=O)(=O)N1CCCCC1C (centres undefined) | 6.4
COc1ccc(Nc2ncnc3ccc(OC)cc23)cc1 | -10.9
COc1ccc(CNC(=O)CSCc2ccccc2F)cc1 | -7.2
Cc1cc2cc(CNC(=O)C(C)Oc3ccccc3)ccc2n1C (centres undefined) | -4.7
c1ccc(C2NCCS2)cc1 (centres undefined) | -10.9
CCc1nnc(NC(=O)CSc2nccn2-c2ccc(Cl)cc2)s1 | -0.4
COC(=O)c1cccc2c(Br)ccc(C(=O)OC)c12 | -64.6
O=C(O)c1ccccc1C(=O)c1ccc2c(c1)CCC2 | -4.2
CCCCC/C=C\C=C1\C(=O)CC[C@@H]1C/C=C\CCCC(=O)O | 0.9&0.9
C=CCn1c(-c2ccc(N)cc2)nc2ccccc21 | 12.9&-5.4
O=C(COC(=O)c1cc2cc(Br)cc(Br)c2oc1=O)c1cccs1 | 2.0
COc1ccc2nc(NC(=O)c3cccnc3)sc2c1 | -2.9
O=C1c2ccccc2C(Cc2ccncc2)(Cc2ccncc2)c2ccccc21 | 5.6

Some of the entries above in another layout:
structure,HCMV UL50-53 inh
COc1ccc(CNC(=O)CSCc2ccccc2F)cc1,-7.2
Cc1cc2cc(CNC(=O)C(C)Oc3ccccc3)ccc2n1C (centres undefined),-4.7
c1ccc(C2NCCS2)cc1 (centres undefined),-10.9
CCc1nnc(NC(=O)CSc2nccn2-c2ccc(Cl)cc2)s1,-0.4

Other entries:
SMILES | HCMV UL50-53 inh
O=C(Cc1ccccc1)NCc1ccc2[nH]c3c(c2c1)CCCC3 | 8.0
O=C1CC[C@@H](C(=O)O)N1 | -53.5
C/C=C\C(=O)NCc1ccc2c(c1)cc(C)n2C | 4.5
COC(=O)c1sc(-c2ccccc2)cc1NC(=O)C1COc2ccccc2O1 (centres undefined) | 12.0
CCOc1ccc2c(-c3ccccc3)cc(=O)oc2c1C | -1.6
Cc1nsc(NC(=O)N2CCC(N)CC2)n1 | -16.0
CC(C)(C)CC(C)(C)c1cc(Cc2cc(C(C)(C)CC(C)(C)C)cc(-n3nc4ccccc4n3)c2O)c(O)c(-n2nc3ccccc3n2)c1 | -77.9
CCCCCCCCCCCCCCCC(=O)C(F)(F)F | -2.6&-16.3&-16.3
COC(=O)Nc1ccc(SCC(=O)c2ccc(Cl)cc2)cc1 | -22.9
NC(=O)c1ccsc1NC(=O)c1ccco1 | -2.2
O=C(COc1cccc2c1CCN(Cc1ccc(Br)cc1)C2=O)N1CCOCC1 | -14.6
CCN(CC)C(=S)SC1CCCCN(C(=O)c2ccc(F)cc2)C1=O (centres undefined) | 11.4
CC1OC(Oc2c(-c3cc(O)c(O)c(O)c3)oc3cc(O)cc(O)c3c2=O)C(O)C(O)C1O (centres undefined) | -31.6
O=S(=O)(c1ccc(Cl)c(Cl)c1)N1CCOCC1 | -2.9
CCn1c(C(Cc2ccccc2)NC(=O)C(C)(C)C)nc2ccccc21 (centres undefined) | -17.1
CC(=O)c1c(C)nn(CC(=O)Nc2ccc(N3CCOCC3)cc2)c1C | -8.2
CCOC(=O)N1CCN(CC(O)COc2cc(C)c(Cl)c(C)c2)CC1 (centres undefined) | -6.0
Cc1cc(C)c(S(=O)(=O)Nc2cccc(C(F)(F)F)c2)c(C)c1 | -4.4
CC(=O)[C@H]1CCC2C3CC=C4C[C@@H](OC(=O)CCC(=O)O)CC[C@]4(C)C3CC[C@@]21C (some centres undefined) | -55.8
O=c1oc2ccccc2c(O)c1C=Nc1cccnc1 | 5.3
COc1ccccc1N1CCN(C(=O)Oc2ccccc2)CC1 | -3.3
CC(C)C(=O)Nc1c2c(nn1-c1ccccc1)CSC2 | -15.0
NC(N)=NN=Cc1c(Cl)cccc1Cl | -8.1
Cc1c(C(=O)NCC2CCCO2)sc2nc(-c3ccc(F)cc3)cn12 (centres undefined) | -14.3
COc1c2occc2c(OC)c2c(=O)cc(C)oc12 | -13.0
O=C(Nc1cccnc1)c1csc(Cc2ccccc2)n1 | -8.1
O=C(O)c1ccccc1OP(=O)(O)O | -5.0
CC(=O)Nc1cccc(NC(=O)CCn2c(=O)sc3ccccc32)c1 | 8.7
C#CCCC[C@@H](O)CCCCCCCCCCC(=O)O | -11.6&-11.6
CC(=O)Nc1ccc(S(=O)(=O)NCc2ccc3[nH]c4c(c3c2)CCCC4)cc1 | -7.9
CN1CCN(c2ccc3nc(-c4c(N)c5c(F)cccc5[nH]c4=O)[nH]c3c2)CC1 | -58.9&-35.9
CC[C@@H]1NC(=O)[C@H]2CN(C(=O)Oc3cccc4ccccc34)CCN2C1=O | 4.5
Cn1cc(C2=C(c3cn(CCCSC(=N)N)c4ccccc34)C(=O)NC2=O)c2ccccc21 | -65.2&-35.2&-117.6&-18.3&-18.3&-57.5
CCN1CCN(Cc2ccc(NC(=O)c3cc(NC(=O)c4cnn(-c5ccccc5)c4N)cc(OC)c3)cc2C(F)(F)F)CC1 | -11.6
CC(O)C1C(=O)N2C(C(=O)O)=C(SC3CNC(C(=O)N(C)C)C3)C(C)C12 (centres undefined) | -11.4&-90.9
CCC1(c2ncc[nH]2)Cc2ccccc2O1 (centres undefined) | -4.6
COc1ccc(/C=C2/SC(=S)N(CC(=O)NCc3ccccc3)C2=O)cc1 | -5.3

Source: PubChem BioAssay (ICCB-Longwood Screening Facility, Harvard Medical School)

An excerpt; the hit share may differ from the screen's.
